Screening results: PubChem, several laboratories
FGF22 binding = shifts melting point of recombinant human FGF22; recombinant FGF22 thermal shift, SYPRO orange fluorescence; percent of sucrose octasulfate shift, DMSO zero; calls only at 9.99 µM; 1.5% of 340,000 active; AID 651658;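 active = melting point raised past a set limit in the mean and every replicate; inconclusive = no clear call; three in four hits are not shown here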
Target sequence (Q9HCT0 whole entry, looked up): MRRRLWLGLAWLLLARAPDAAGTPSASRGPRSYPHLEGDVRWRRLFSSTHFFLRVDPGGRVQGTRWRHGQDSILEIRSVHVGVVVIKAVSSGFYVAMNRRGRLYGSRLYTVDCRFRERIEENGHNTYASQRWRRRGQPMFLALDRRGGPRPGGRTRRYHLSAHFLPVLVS
AF4-AF9 inh = MLL-AF4/AF9 protein interaction inhibition; P42568; AlphaScreen, biotin-AF4 peptide binding to FLAG-AF9; inhibition, % at 10 µM; 0.47% of 350,000 active;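 active = every replicate reaching a set inhibition limit, whatever the replicate mean, cut at about 25% in these data; inconclusive = mean inhibition reaches that limit but some replicates miss it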;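 note: 0% = plate neutral control median and 100% = total signal loss; the record names both 10 and 1 µM as test concentration; the first replicate is given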
Target sequence (P42568 whole entry, looked up): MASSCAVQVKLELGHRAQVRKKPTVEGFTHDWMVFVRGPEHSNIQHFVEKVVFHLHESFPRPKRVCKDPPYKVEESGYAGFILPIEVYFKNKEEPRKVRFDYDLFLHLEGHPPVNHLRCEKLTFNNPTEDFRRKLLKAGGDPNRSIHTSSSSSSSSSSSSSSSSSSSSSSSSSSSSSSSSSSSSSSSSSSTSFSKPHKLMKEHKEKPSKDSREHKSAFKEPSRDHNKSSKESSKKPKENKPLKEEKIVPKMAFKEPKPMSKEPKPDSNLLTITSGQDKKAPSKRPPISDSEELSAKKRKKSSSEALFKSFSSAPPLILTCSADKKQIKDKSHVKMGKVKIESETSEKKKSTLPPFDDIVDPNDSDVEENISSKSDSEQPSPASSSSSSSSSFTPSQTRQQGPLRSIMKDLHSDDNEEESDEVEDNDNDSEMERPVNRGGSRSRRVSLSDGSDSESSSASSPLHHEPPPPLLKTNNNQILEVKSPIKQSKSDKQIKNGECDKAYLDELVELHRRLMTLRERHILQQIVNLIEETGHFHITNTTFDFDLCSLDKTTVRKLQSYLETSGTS
Vif TR-FRET = inhibitors of Vif binding to APOBEC3G peptide, primary screen, biochemical, TR-FRET, GST-Vif 1-94, biotin-A3G peptide, dose response retest (AID 1117319). TR-FRET GST-Vif / biotin-A3G peptide binding; higher % means a stronger effect; test concentration not given here; strong numbers were not always called active. inhibition, %, or IC50 in µM where a hit was titrated. 0.57% of 260,000 active;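 active = above the screen mean plus three standard deviations and confirmed in dose response; inconclusive = results disagree or hit not tested in dose response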;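 note: Vif residues 1-94 fused to GST binding biotinylated APOBEC3G peptide 110-148; 0% = full assay without inhibitor and 100% = GST in place of GST-Vif; retest series ran down from 100 µM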
HNF4A DNA FP = change in binding of human HNF4 alpha to DNA; P41235; 0.3% of 360,000 active; AID 1224865; activity change, % at 10 µM; HNF4a-FITC DNA binding, fluorescence polarization, 1 h; in the data active = activity change above about 30%, passing the limit was not always enough;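 note: controls were the assay level and a saturating level of protein; the project sought stronger binding though the title names inhibitors; some compounds called inactive have numbers as strong as hits; positive values seem to mean higher polarization but the record does not say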
Ecoli rRNA inh = selective bacterial rRNA inhibition in E. coli; 1.6% of 350,000 active; GFP signal change (wild-type ribosome), % (concentration not given with the values); E. coli WT GFP vs humanized-ribosome RFP mutants, fluorescence, 24 h; stronger effect = lower value; DMSO median 0, no signal -100; AID 720706;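 active = significant combined selectivity score with lowered wild-type GFP, culture density cut under 30%, mutant RFP and density less affected; inactive = any of these conditions unmet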; note: one replicate is shown; some compounds called inactive have numbers as strong as hits
ALR inh = inhibitors of human sulfhydryl oxidase ALR; P55789; purified ALR, DTT oxidation, H2O2 HRP-luminol luminescence; inhibition, % (test concentration not listed); 3.8% of 290,000 active; AID 485317;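 active = mean and each replicate at 75% or more; inconclusive = only one of the two met; inactive = neither met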;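 note: stock transfer was 7.5 nL into about 7.5 µL; 0% = neutral wells and 100% = wells with inactivated enzyme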
Target sequence (P55789 whole entry, looked up): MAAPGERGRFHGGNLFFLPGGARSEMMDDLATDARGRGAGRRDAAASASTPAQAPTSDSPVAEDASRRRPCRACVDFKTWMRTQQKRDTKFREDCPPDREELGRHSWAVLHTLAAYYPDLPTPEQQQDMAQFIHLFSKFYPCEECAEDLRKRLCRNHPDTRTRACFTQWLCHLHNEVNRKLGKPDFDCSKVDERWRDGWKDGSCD
E coli growth = E. coli growth inhibition; Escherichia coli growth, OD600, 23 h; stronger effect = lower value; OD600 absorbance (concentration not given with the values); 0.21% of 330,000 active; AID 1053175;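 active = OD600 absorbance below the run mean of sample wells minus 3.6 SD, in any replicate, cut at about 0.56 in these data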;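 note: stock transfer was 300 nL into about 60 µL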
Ecoli rRNA inh OD600 = second read-out of Ecoli rRNA inh, no call of its own (marks repeat the call); OD600 change, %; measured here: OD600 growth;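 optical density of the mix in the first replicate; 0 = DMSO median and -100 = no signal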
Ecoli rRNA inh RFP = also measured in Ecoli rRNA inh; calls as there; RFP signal change, %; measured here: RFP humanized mutant strains;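 first replicate; 0 = DMSO median and -100 = no signal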
An asterisk follows results filed as active; i = inactive; ? = inconclusive; . = no result given; & = joins results of further samples. Some of the compounds tested. The share of hits here may be higher or lower than overall.

SMILES | FGF22 binding | AF4-AF9 inh | Vif TR-FRET | HNF4A DNA FP | Ecoli rRNA inh | Ecoli rRNA inh OD600 | Ecoli rRNA inh RFP | ALR inh | E coli growth
Cc1ccc2[nH]c3c(=O)n(CC(=O)NCCc4ccc(Cl)cc4)ncc3c2c1 | i | 0.3 | . | 0.0 | 4 | 12 | 1.1 | 3 | 0.62
O=[N+]([O-])c1cccc(C2Nc3cccc4cccc(c34)N2)c1 | i | -39 | ? | 0.1 | . | . | . | 10 | .
Nc1ccc2nc(CCCCc3nc4ccccc4[nH]3)[nH]c2c1 | i | 14 | . | 4.1 | 7 | 13 | 0.8 | 100* | 0.7
CC1CCCCC1NC(=O)CCS(=O)(=O)c1ccc2c(c1)NC(=O)CO2 (centres undefined) | i | -1.1 | . | 0.5 | 0 | 9 | -1.8 | -7 | 0.71
CC(C)NC(=O)N(C)C[C@H]1OCCCC[C@H](C)Oc2ccc(NS(=O)(=O)c3ccc(Cl)cc3)cc2C(=O)N([C@H](C)CO)C[C@@H]1C | i | -1.1 | . | . | 0 | -4 | 2.7 | . | .
COc1ccc(CCNC(=O)CCC(=O)n2ncc3cc(C)ccc32)cc1OC | i | 4.6 | . | 2.9 | -4 | -2 | -0.9 | -3 | 0.73
O=C1C(=NO)C(c2ccccc2)Oc2ccccc21 (centres undefined) | i | 3.5 | -6% | 2.4 | -51 | -73 | -14 | . | 0.62
COc1ccccc1NC(=O)Cn1c([N+](=O)[O-])cnc1C | i | -3.0 | . | 1.1 | 21 | 12 | 4.5 | -7 | 0.68
Cc1ccc(/C=N/NC(=O)c2cccs2)s1 | i | 1.7 | 18% | 0.1 | 1 | -2 | 1.4 | 28 | .
COc1ccc(C2CC(=O)Nc3ccccc3S2(=O)=O)cc1OC (centres undefined) | . | . | 10% | 1.6 | . | . | . | -11 | 0.73
O=C(NC(=S)NCc1ccccc1)C1CC1 | i | -1.5 | ? | 1.1 | 2 | 2 | -0.8 | 0 | .
Cc1ccc(CSCC(=O)N2CCCC2)cc1 | i | 2.2 | 1% | 2.2 | . | . | . | -3 | 0.69
CCOC(=O)CCn1nc(-c2ccccc2)cc1N | . | . | -2% | 1.9 | . | . | . | -11 | 0.74
CC(C)C(NC(=O)c1ccccc1)C(=O)N/N=C\c1ccco1 (centres undefined) | . | . | -4% | 2.5 | . | . | . | -8 | .
O=C(CN1CCSCC1)N/N=C/c1ccc(F)c(F)c1 | . | . | 4% | 1.6 | . | . | . | -6 | .
CCC1CCC2(CC1)NC(=O)N(CC(=O)NCc1ccc(Cl)cc1)C2=O (centres undefined) | i | -8.1 | . | 2.6 | 20 | 16 | 1.5 | 1 | 0.7
Cn1cnc(CCNC(=O)C[C@H]2CC[C@H]3[C@@H](COC[C@H](O)CN3C(=O)Nc3ccc(Cl)cc3)O2)c1 | i | 1.9 | . | . | -36 | -50 | 5.7 | . | .
CN1CCN(C(=O)c2cc3c(c(-c4cccc(-c5cccnc5)c4)n2)[C@@H](CCO)N(C(=O)CC2CC2)C3)CC1 | i | -18&-1.1 | . | 0.9 | 6&1 | 7&4 | -1.3&9.5 | . | .
O=C(NCc1ccon1)C1CCC(=O)N(Cc2cccc(C(F)(F)F)c2)C1 (centres undefined) | i | -0.2 | 5% | -0.4 | 6 | 9 | -1.2 | -4 | 0.72
CCOc1ccc(Br)cc1C(=O)N/N=C/c1ccc([N+](=O)[O-])cc1 | i | -1.3 | 12% | -4.5 | -1 | 3 | 0.2 | -2 | .
c1ccc(-c2ccc(-c3ccccn3)s2)nc1 | i | 2.9 | . | 0.1 | -13 | -25 | -6.0 | -3 | 0.64
Cc1ccc(S(=O)(=O)N/N=C\c2cn(-c3ccccc3)nc2-c2ccccc2)cc1 | . | . | 2% | -3.3 | . | . | . | 3 | .
COc1ccc(NC(=O)CN(C)C(=O)CCC2CCCC2)cc1 | i | -5.0 | . | 4.3 | 4 | 7 | -0.8 | -9 | 0.69
OC[C@@H]1[C@@H](c2ccc(-c3ccccc3)cc2)[C@H]2CN(Cc3cncnc3)CCCCN12 | i | -0.7 | . | . | 1 | 12 | -0.3 | . | .
O=C(c1ccc(CS(=O)Cc2cccc(Cl)c2)o1)N1CCN(c2ccc(F)cc2)CC1 (centres undefined) | i | 2.7 | -5% | -0.2 | -22 | -49 | -5.2 | . | .
CC(=O)Nc1nc(C)c(Cc2ccccc2)c(=O)[nH]1 | . | . | 3% | 2.0 | . | . | . | 2 | 0.66
Cn1ccnc1C1CCCCN1C(=O)c1cc(COc2ccc(F)cc2F)on1 (centres undefined) | i | 3.8 | -4% | 2.7 | -2 | 3 | 3.6 | . | 0.74
Cc1ccc(N2CC(C(=O)Nc3nnc(SCc4cccnc4)s3)CC2=O)cc1 (centres undefined) | i | -4.2 | 4% | -1.2 | -4 | -3 | 1.0 | -25 | 0.72
COc1ccc(-c2cn(CCC(=O)NCc3ccc(C)cc3)c(CCN)n2)cc1 | i | 12 | . | 1.2 | 2 | -2 | 6.1 | -2 | 0.68
CCn1nnc2cc(C(=O)N3CCC(C(=O)OC)CC3)ccc21 | i | -3.8 | -4% | 4.6 | 9 | 20 | 4.5 | -12 | 0.72
COc1cccc(CNC(=O)C[C@H]2C=C[C@@H](NC(=O)C3CC3)[C@H](CO)O2)c1 | i | -0.5 | . | . | 1 | -4 | -0.8 | . | .
Cn1ncc(Br)c1C(=O)NC1CCCCCC1 | i | 1.4 | . | -5.5 | 7 | 3 | 1.9 | -12 | 0.71
CN(C)CCNC(=O)c1onc(CSc2ccc(F)cc2)c1C(=O)NCCN(C)C | i | 7.6 | -1% | 0.3 | 14 | 15 | -4.4 | 0 | 0.67
COc1ccc(S(=O)(=O)N(CC(=O)N/N=C/c2cccs2)c2ccc(C)cc2)cc1OC | . | . | 12% | -2.0 | . | . | . | -1 | .
CCCN1CN(Cc2ccco2)c2nc3ccccc3n2C1 | . | . | 0% | 1.5 | 15 | 10 | 1.7 | -4 | 0.66
Cc1cc(N2CCCCC2)nc(N2CCOCC2)n1 | . | . | -8% | 0.2 | . | . | . | 0 | 0.68
CC1CC(=O)NN=C1c1ccc(N)c([N+](=O)[O-])c1 (centres undefined) | . | . | 7% | 0.4 | . | . | . | -6 | 0.68
CC(C)CC#Cc1ccc2c(c1)O[C@H](CN(C)C(=O)NC1CCCC1)[C@@H](C)CN([C@@H](C)CO)S2(=O)=O | i | 0.4 | . | . | -6 | -36 | 32 | . | .
CCCC#Cc1ccc([C@H]2[C@H]3CN(S(C)(=O)=O)CCCCN3[C@H]2CO)cc1 | i | 10 | . | . | 5 | 7 | 1.4 | . | .
O=C(NCc1ccc(C(F)(F)F)cc1)c1ccc(-c2cccnc2)c2ccoc12 | i | -2.2 | . | 1.0 | -24 | -31 | -7.3 | . | .
Cc1ccc(NC(=S)N(CCN2CCOCC2)Cc2ccccc2F)cc1Cl | i | -1.5 | . | 6.7 | -5 | -20 | -2.4 | -9 | 0.71
CCOc1c(Br)cc(/C=C2\N=C(C)OC2=O)cc1Br | i | -3.7 | -2% | 3.3 | 8 | 18 | -0.5 | 1 | 0.68
Cc1[nH]c(C)c(S(=O)(=O)N(C)Cc2ccccc2)c1C(=O)N1CCCC1 | i | -0.2 | -2% | 1.7 | -2 | 3 | -3.8 | -7 | 0.68
O=C(C[C@H]1CC[C@H](NC(=O)CN2CCOCC2)[C@@H](CO)O1)NC1CCCCC1 | i | -3.5 | . | . | 0 | -6 | -1.0 | . | .
CN(C)C(=O)c1cccc(-c2ccc([C@@H]3[C@H](CO)N4CCCCN(Cc5cccnc5)C[C@@H]34)cc2)c1 | i | 1.4 | . | . | 2 | -1 | 0.7 | . | .
O=C(CSc1c2c(nc3ccccc13)CCCC2)NCc1ccco1 | i | 0.9 | . | 2.2 | 21 | 18 | 4.5 | 98* | 0.69
O=C(Nc1ccc(Cl)cc1)N1CCC(c2nc(-c3ccc(F)cc3)no2)CC1 | i | -8.5 | 8% | -1.7 | -8 | -14 | -4.3 | -1 | 0.62
Nc1nc(-c2ccc([N+](=O)[O-])cc2)c(C(=O)Nc2ccc(Cl)cc2)s1 | i | 5.2 | 11% | -2.0 | 9 | 8 | 6.0 | -20 | 0.69
N#Cc1ccc(-c2ccc(OCC(O)CN3CCOCC3)cc2)cc1 (centres undefined) | i | 1.7 | 31% | 3.5 | -34 | -41 | -8.2 | 3 | 0.68
CC(C)Cn1c(=S)[nH]c2cc(C(=O)NCc3ccccc3F)ccc2c1=O | i | -6.0 | . | -2.7 | 11 | 9 | 1.3 | 11 | 0.66
CN(Cc1ccccc1)C(=O)c1ccc(NC(=O)Cc2cccc(NC(=O)C3CCN(C(=O)C4CCCCC4)CC3)c2)cc1 | i | -2.6 | . | -4.8 | 5 | 1 | 9.7 | -1 | 0.72
COc1ccc(CNC(=O)C2CCCN(c3nc4ccccc4o3)C2)c(OC)c1 (centres undefined) | i | 5.4 | 10% | 1.8 | 7 | 3 | -5.6 | -9 | 0.62
C/C(=N\NC(=O)c1ccc(F)cc1)c1cccc(NC(=O)c2cccc(F)c2)c1 | i | -4.1 | . | 0.7 | 7 | 10 | -1.9 | -3 | .
COCC(=O)N1CC2(C1)[C@H](c1ccc(-c3ccc(F)cc3)cc1)[C@@H](CO)N2C(C)=O | i | 0.6 | . | . | -2 | -7 | 3.2 | . | .
C[C@@H]1CN([C@H](C)CO)C(=O)c2cc(NC(=O)Cn3cnnn3)ccc2O[C@H]1CN(C)Cc1ccccc1 | i | 0.6 | . | . | 0 | 2 | -3.9 | . | .
COc1ccc2c3c([nH]c2c1)[C@@H](CO)N(Cc1ccccc1Cl)CC31CN(C(C)=O)C1 | i | 0.4 | . | . | -1 | 3 | 5.7 | . | .
CC1=C(C(=O)OC(C)C)C(c2coc3ccccc3c2=O)C2=C(CCCC2=O)N1 (centres undefined) | . | . | 1% | 1.9 | . | . | . | 4 | 0.73
O=[N+]([O-])c1ccc(C(O)C(CO)NC(=S)Nc2ccccc2)cc1 (centres undefined) | i | 3.1 | 2% | 5.2 | -44* | -32* | -14* | -2 | 0.69
Cc1ccc(CNC(=O)C2CCCN(S(C)(=O)=O)C2)cc1 (centres undefined) | . | . | 12% | 3.5 | . | . | . | -1 | 0.66
CCCCOC(=O)c1ccc(NC(=O)C(=O)NCCN(C)C)cc1 | i | 3.9 | 24% | 1.5 | 0 | -4 | -0.6 | -10 | 0.66
O=C(c1ccoc1)N1CCC2(CC1)Oc1ccc(F)cc1C(=O)C21CC(c2ccccc2)=NO1 (centres undefined) | i | 2.9 | -3% | 3.7 | 2 | -5 | 14 | 3 | 0.71
Cc1ccccc1NS(=O)(=O)c1ccc(NC(=O)c2nc3ncccn3n2)cc1 | . | . | 1% | 1.0 | 12 | 8 | -1.6 | -4 | 0.66
C[C@@H]1CCCCO[C@H](CN(C)C(=O)Nc2ccc(F)cc2)[C@@H](C)CN([C@@H](C)CO)C(=O)c2cc(NC(=O)Cc3ccccc3)ccc2O1 | i | -1.0 | . | . | -2 | -4 | 0.4 | . | .

Some of these compounds in order of SMILES length, largest number first:
SMILES | FGF22 binding | AF4-AF9 inh | Vif TR-FRET | HNF4A DNA FP | Ecoli rRNA inh | Ecoli rRNA inh OD600 | Ecoli rRNA inh RFP | ALR inh | E coli growth
Cc1ccc2[nH]c3c(=O)n(CC(=O)NCCc4ccc(Cl)cc4)ncc3c2c1 | i | 0.3 | . | 0.0 | 4 | 12 | 1.1 | 3 | 0.62
Cc1ccc(/C=N/NC(=O)c2cccs2)s1 | i | 1.7 | 18% | 0.1 | 1 | -2 | 1.4 | 28 | .
Cn1ncc(Br)c1C(=O)NC1CCCCCC1 | i | 1.4 | . | -5.5 | 7 | 3 | 1.9 | -12 | 0.71
